# Screening results (PubChem BioAssay)
# Vif A3G: inhibitors of Vif binding to APOBEC3G peptide, primary screen, biochemical, TR-FRET, GST-Vif 1-94, biotin-A3G peptide, dose response retest (AID 1117319). TR-FRET GST-Vif / biotin-A3G peptide binding; higher % means a stronger effect; test concentration not given here; strong numbers were not always called active. inhibition, %, or IC50 in µM where a hit was titrated. hit rate 0.57% among 260,000;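 active means above the screen mean plus three standard deviations and confirmed in dose response; inconclusive means results disagree or hit not tested in dose response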;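 further: Vif residues 1-94 fused to GST binding biotinylated APOBEC3G peptide 110-148; 0% = full assay without inhibitor and 100% = GST in place of GST-Vif; retest series ran down from 100 µM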
# HNF4A DNA FP: change in binding of human HNF4 alpha to DNA; P41235; HNF4a-FITC DNA binding, fluorescence polarization, 1 h; activity change, % at 10 µM; hit rate 0.3% among 360,000; in the data active means activity change above about 30%, passing the limit was not always enough;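 further: controls were the assay level and a saturating level of protein; the project sought stronger binding though the title names inhibitors; some compounds called inactive have numbers as strong as hits; positive values seem to mean higher polarization but the record does not say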
# Target sequence (P41235 whole entry, looked up): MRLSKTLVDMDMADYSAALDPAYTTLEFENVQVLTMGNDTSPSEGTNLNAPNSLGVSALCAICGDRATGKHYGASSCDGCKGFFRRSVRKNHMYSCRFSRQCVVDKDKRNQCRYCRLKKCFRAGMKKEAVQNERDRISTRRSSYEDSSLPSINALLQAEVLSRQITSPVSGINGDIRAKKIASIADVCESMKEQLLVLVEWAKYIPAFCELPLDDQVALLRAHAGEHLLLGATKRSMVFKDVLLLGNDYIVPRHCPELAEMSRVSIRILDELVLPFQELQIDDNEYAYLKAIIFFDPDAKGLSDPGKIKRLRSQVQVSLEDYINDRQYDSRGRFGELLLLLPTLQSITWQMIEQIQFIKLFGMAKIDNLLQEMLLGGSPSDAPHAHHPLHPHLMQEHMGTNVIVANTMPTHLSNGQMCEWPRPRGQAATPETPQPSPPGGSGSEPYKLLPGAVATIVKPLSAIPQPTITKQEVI
# ALR inh: human ALR oxidase inhibition via reduced H2O2; P55789; inhibition, % (no concentration beside the values); purified ALR, DTT oxidation, H2O2 HRP-luminol luminescence; hit rate 3.8% among 290,000;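 active means mean and each replicate at 75% or more; inconclusive means only one of the two met; inactive means neither met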;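 further: stock transfer was 7.5 nL into about 7.5 µL; 0% = neutral wells and 100% = wells with inactivated enzyme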
# AF4-AF9 inh: MLL-AF4/AF9 protein interaction inhibition | P42568 | AlphaScreen, biotin-AF4 peptide binding to FLAG-AF9 | inhibition, % at 10 µM | hit rate 0.47% among 350,000;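 active means every replicate reaching a set inhibition limit, whatever the replicate mean, cut at about 25% in these data; inconclusive means mean inhibition reaches that limit but some replicates miss it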;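 further: 0% = plate neutral control median and 100% = total signal loss; the record names both 10 and 1 µM as test concentration; the first replicate is given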
# Target sequence (P42568 whole entry, looked up): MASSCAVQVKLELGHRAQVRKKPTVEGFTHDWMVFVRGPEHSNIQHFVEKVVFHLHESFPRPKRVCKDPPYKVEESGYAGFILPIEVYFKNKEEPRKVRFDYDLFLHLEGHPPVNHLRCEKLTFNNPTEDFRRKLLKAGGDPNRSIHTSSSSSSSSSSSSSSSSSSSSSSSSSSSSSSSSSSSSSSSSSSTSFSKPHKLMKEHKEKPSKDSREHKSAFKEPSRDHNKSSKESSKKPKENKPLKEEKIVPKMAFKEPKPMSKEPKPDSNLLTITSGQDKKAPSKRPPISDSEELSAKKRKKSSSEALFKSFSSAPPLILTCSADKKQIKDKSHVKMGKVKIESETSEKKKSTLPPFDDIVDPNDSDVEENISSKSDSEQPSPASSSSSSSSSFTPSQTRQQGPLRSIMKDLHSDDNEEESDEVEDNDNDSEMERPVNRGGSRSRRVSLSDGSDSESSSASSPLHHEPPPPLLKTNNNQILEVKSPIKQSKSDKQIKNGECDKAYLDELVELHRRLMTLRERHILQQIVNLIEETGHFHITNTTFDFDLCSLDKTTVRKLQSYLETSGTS
# FGF22 binding: binders of recombinant human FGF22 by thermal shift; calls only at 9.99 µM; hit rate 1.5% among 340,000; Q9HCT0; AID 651658; SYPRO orange fluorescence; percent of sucrose octasulfate shift, DMSO zero;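 active means melting point raised past a set limit in the mean and every replicate; inconclusive means no clear call; three in four hits are not shown here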
# Ecoli rRNA inh: selective bacterial rRNA inhibition in E. coli; hit rate 1.6% among 350,000; GFP signal change (wild-type ribosome), % (concentration not given with the values); E. coli WT GFP vs humanized-ribosome RFP mutants, fluorescence, 24 h; active compounds read low; DMSO median 0, no signal -100; AID 720706;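 active means significant combined selectivity score with lowered wild-type GFP, culture density cut under 30%, mutant RFP and density less affected; inactive means any of these conditions unmet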; further: one replicate is shown; some compounds called inactive have numbers as strong as hits
# E coli growth: blocks Escherichia coli growth; hit rate 0.21% among 330,000; OD600 absorbance (no concentration beside the values); OD600, 23 h; active compounds read low;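 active means OD600 absorbance below the run mean of sample wells minus 3.6 SD, in any replicate, cut at about 0.56 in these data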;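 further: stock transfer was 300 nL into about 60 µL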
# Ecoli rRNA inh OD600: also measured in Ecoli rRNA inh; calls as there; OD600 change, %; measured here: OD600 growth;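 optical density of the mix in the first replicate; 0 = DMSO median and -100 = no signal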
# Ecoli rRNA inh RFP: recorded beside Ecoli rRNA inh, whose call it bears; RFP signal change, %; measured here: RFP humanized mutant strains;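 first replicate; 0 = DMSO median and -100 = no signal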
# Starred values were filed as active, the others as inactive; i = inactive; ? = inconclusive; nt = no result given; & = joins results of further samples. An excerpt, so the mix of outcomes need not match the whole.
SMILES,Vif A3G,HNF4A DNA FP,ALR inh,AF4-AF9 inh,FGF22 binding,Ecoli rRNA inh,Ecoli rRNA inh OD600,Ecoli rRNA inh RFP,E coli growth
CCN(CC(=O)Nc1ccc(NC(C)=O)cc1)C(=O)c1cc(C)on1,-2%,2.0,-1,16,nt,3,8,1.7,0.68
Cc1ccc(S(=O)(=O)N(C)C[C@@H]2OCCCC[C@H](C)Oc3ccc(NS(C)(=O)=O)cc3C(=O)N([C@@H](C)CO)C[C@H]2C)cc1,nt,nt,nt,1.4,i,0,-8,-1.0,nt
O=C(NCCN1CCC(n2c(=O)[nH]c3ccccc32)CC1)c1ccccc1,nt,-2.1,nt,-2.1,i,16,1,1.0,nt
CN1c2ccc(C#Cc3cccnc3)cc2[C@H]2[C@H](CCN2C(=O)c2cccnc2)[C@H]1CO,nt,nt,nt,3.5,i,-2,9,-1.4,nt
COC(=O)c1c(NC(=O)COC(=O)c2ccc(NC(=O)CC#N)cc2)sc2c1CCCCC2,82%,-3.8,-2,0.0,nt,-2,-3,24,0.68
O=C(C[C@H]1CC[C@@H](NC(=O)Nc2ccc3c(c2)OCO3)[C@H](CO)O1)NCc1ccc2c(c1)OCO2,nt,nt,nt,0.0,i,3,-8,-0.3,nt
CN(C)C1(CNC(=O)C2CCC(=O)N(CCc3ccc(Cl)cc3)C2)CCCCC1 (stereo not drawn),-8%,-3.3,0,-1.5,i,6,7,-0.4,0.67
C[C@H](O)C#Cc1cnc2c(c1)C(=O)N([C@@H](C)CO)C[C@H](C)[C@H](CN(C)C(=O)Cc1ccncc1)O2,nt,nt,nt,-3.0,i,2,-2,-0.9,nt
CC(NCC1(N2CCOCC2)CCCCC1)C(=O)Nc1ccc(Cl)cc1Cl (stereo not drawn),?,1.8,26,-0.4,i,2,0,-0.2,0.68
O=C(Nc1cc([N+](=O)[O-])ccc1Cl)C1CC1,-7%,2.1,0,3.5,i,nt,nt,nt,0.65
COc1ccc2[nH]c(=O)cc(C(=O)O)c2c1,?,-12,-17,-4.1,i,6,1,-3.8,0.73
CC(C)NC(=O)Nc1ccc2c(c1)C(=O)N([C@@H](C)CO)C[C@H](C)[C@H](CN(C)C(=O)c1ccncc1)OCCCC[C@@H](C)O2,nt,nt,nt,9.6,i,3,4,-2.5,nt
C[C@H]1CCCCO[C@H](CN(C)C(=O)Nc2ccc(F)cc2)[C@@H](C)CN([C@@H](C)CO)C(=O)c2cc(NC(=O)CCCN(C)C)ccc2O1,nt,nt,nt,-0.3,i,-1,-6,0.5,nt
CC(=O)Nc1ccc(C(=O)N2CCCC(c3cc(C(=O)Nc4ccccc4Cl)no3)C2)cc1 (stereo not drawn),nt,2.1,nt,-0.1,i,-6,-19,4.1,nt
CC(C)c1ccc(C2/C(=C(/O)c3ccc(F)cc3)C(=O)C(=O)N2CCCN2CCOCC2)cc1 (stereo not drawn),nt,3.9,49,-4.4,i,5,-5,-1.4,0.66
Cc1ccc(S(=O)(=O)N(C)C[C@@H]2Oc3ccc(NC(=O)C4CCCCC4)cc3C(=O)N([C@H](C)CO)C[C@@H]2C)cc1,nt,nt,nt,-5.7,i,-5,-3,-3.3,nt
Cc1ccc(NC(=O)CN(C)C(=O)c2ccccn2)cc1,0%,-0.6,nt,3.8,i,0,-1,2.1,0.67
Cc1c(C(=O)Nc2ccc(OC(F)(F)F)cc2)sc2nc3n(c(=O)c12)CCC3,-7%,2.6,-4,nt,nt,nt,nt,nt,0.7
COc1ccc(-c2cnc3c(NC=O)cc(-c4ccc(F)cc4)cn23)cc1OC,nt,4.8,nt,2.2,i,8,-12,-0.8,nt
COc1cc(NS(=O)(=O)c2ccc3c(c2)NC(=O)CO3)cc(OC)c1,4%,-6.9,18,-0.2,i,4,-3,5.8,0.66
CC1CCCCN1CCn1c(=S)[nH]c2cc3c(cc2c1=O)OCO3 (stereo not drawn),4%,0.7,22,-4.6,i,14,6,-1.4,0.7
Cc1ccc(N)cc1-n1c(C)ccc1C,10%,7.2,8,nt,nt,nt,nt,nt,0.66
O=C(COc1cc2oc(=O)c3c(c2cc1Cl)CCC3)NCCCN1CCOCC1,nt,6.9,-5,-0.4,i,1,3,1.8,0.69
COc1ccc(S(=O)(=O)Nc2ccccc2C(=O)OC2CCCN(C)C2)cc1OC (stereo not drawn),-4%,1.5,-5,nt,nt,nt,nt,nt,0.69
CN(C)c1ccc(C(=O)Nc2ccc(O)c3c(=O)cc(-c4ccccc4Cl)oc23)cc1,?,-1.0,-4,8.5,i,1,4,0.1,0.66
CSc1ccccc1NC(=O)c1cc(C2CC2)on1,-1%,-1.7,nt,-4.2,i,9,-4,-10,0.74
C[C@H]1CN([C@@H](C)CO)C(=O)c2cccc(NC(=O)c3ccc(-c4nccs4)cc3)c2O[C@@H]1CN(C)C,nt,nt,nt,2.4,i,-4,-4,2.1,nt
CC(C)CCNC(=O)Nc1ccc2c(c1)N(C)C(=O)CS2,-1%,-6.3,1,nt,nt,nt,nt,nt,0.64
Cn1nc(C(=O)Nc2nnc(C3CC3)s2)c2ccccc2c1=O,5%,-0.6,0,-2.8,i,9,9,-1.2,0.66
COc1cc(/C=N/NC(=O)CSc2ccccn2)ccc1O,30%,4.7,98*,4.8,i,14,8,6.4,nt
CCN(c1ccccc1)S(=O)(=O)c1ccc(F)cc1,1%,1.9,-5,nt,nt,nt,nt,nt,0.71
CN(C(=O)c1cccc(NC(=O)Cc2ccc(NC(=O)C3CCN(C(=O)C4CCC4)CC3)cc2)c1)C1CCCC1,-2%,2.8,nt,1.5,i,-6,-1,3.4,0.67
O=C(Nc1nnc([C@@H]2O[C@H](CO)[C@@H](O)[C@H]2O)s1)Nc1ccccc1C(F)(F)F,nt,-1.2,nt,-3.8,i,nt,nt,nt,nt
C[C@@H]1CN([C@@H](C)CO)C(=O)c2cccc(NC(=O)c3ccc(-c4nccs4)cc3)c2O[C@H]1CN(C)Cc1ccc(C(=O)O)cc1,nt,nt,nt,1.1,i,0,2,-2.3,nt
Cc1nc(NCCc2ccc(O)cc2)c2nnn(Cc3ccccc3)c2n1,-3%,-5.4,2,-2.6,i,5,8,5.2,nt
O=C(COC(=O)c1ccccc1SCC(=O)N1CCCC1)NCc1ccccc1,-4%,2.3,3,1.0,i,5,-4,1.4,0.61
O=S(=O)(Cc1ccccc1)N1CCC(N2CCN(c3ccccc3)CC2)CC1,?,-4.0,-7,nt,nt,nt,nt,nt,0.67
CCCCOc1ccc(/C=C/C(=O)OCC(=O)c2c(N)n(C)c(=O)n(C)c2=O)cc1OCC,5%,4.0,-1,-1.2,i,8,2,4.4,nt
CCOc1cc2c(cc1OCC)C(c1ccc(F)cc1)NCC2 (stereo not drawn),nt,0.6,-7,nt,i,13,10,-0.4,0.67
CC(C)c1ccc(N(C(=O)CNC(=O)c2ccco2)C(C(=O)NC2CCCC2)c2cccnc2)cc1 (stereo not drawn),nt,-0.9,-1,1.3,i,8,8,-2.1,0.67
Cc1nc(C)n(CC(=O)N2CCCC(C(=O)c3ccc(Cl)cc3C)C2)n1 (stereo not drawn),-3%,1.3,1,-2.8,i,-3,-2,0.1,0.69
C[C@@H]1CN([C@H](C)CO)C(=O)c2cc(NS(=O)(=O)c3cn(C)cn3)ccc2O[C@@H](C)CCCCO[C@@H]1CN(C)Cc1ccc(C(F)(F)F)cc1,nt,nt,nt,1.2,i,-1,-10,-0.6,nt
C[C@@H]1CN([C@H](C)CO)C(=O)c2cc(C3=CCCCC3)cnc2O[C@H]1CN(C)Cc1ccccc1F,nt,nt,nt,14,i,3,3,1.2,nt
C=CCn1c(CCNC(=O)c2ccccc2F)nnc1SCC(=O)Nc1nc2ccccc2s1,9%,0.4,0,nt,nt,nt,nt,nt,0.71
CS(=O)(=O)N(Cc1ccccc1)c1ccc(C(=O)Nc2ccc(C(N)=O)cc2)cc1,nt,5.1,2,-7.0,i,-1,-2,-1.9,0.72
Cc1c(NC(=O)COc2ccc3ccc(=O)oc3c2)c(=O)n(-c2ccccc2)n1C,9%,-3.0,-7,-6.0,i,11,16,-2.1,0.63
COc1ccc(N2CCN(C(C)=C3C(=O)c4ccccc4C3=O)CC2)cc1,-4%,-0.5,-1,-1.8,i,-1,0,-0.4,0.66
CSc1ccccc1NC(=O)CN(Cc1ccc(Cl)cc1)S(C)(=O)=O,-5%,-0.4,4,nt,nt,nt,nt,nt,0.68
O=C1CN(C(=O)c2ccccc2Cl)c2ccccc2N1,-2%,-0.6,nt,0.9,i,4,5,1.9,0.6
COc1ccc(Cn2nnnc2C(c2ccc(N(C)C)cc2)N2CCC(C)CC2)cc1 (stereo not drawn),4%,-2.4,5,nt,nt,nt,nt,nt,0.75
COc1ccc(C(=O)Nc2nc(C)cc(C)n2)cc1[N+](=O)[O-],4%,1.1,nt,nt,nt,nt,nt,nt,0.7
O=C(NCc1ccc(S(=O)(=O)NC2CCCCC2)s1)c1ccccc1,nt,-0.1,-6,nt,i,-9,-8,1.2,0.67
CC1(Oc2cnc(Cl)c3ccccc23)CCN(Cc2ccc(-c3ccccn3)cc2)C1 (stereo not drawn),nt,-1.3,nt,4.0,i,2,-8,12,nt
Cc1ccc2nc(N3CCN(Cc4nnnn4C4CCCC4)CC3)c(C#N)cc2c1,nt,2.3,-7,nt,nt,nt,nt,nt,0.73
N#Cc1ccccc1OCC(=O)Nc1ccc2c(c1)OCCO2,1%,-2.6,-5,-0.5,i,-6,-7,-0.2,0.7
Cc1cccc(OCC(=O)Nc2ccc3c(c2)nc(CN2CCCCC2)n3C)c1,nt,2.0,71,-8.9,i,0,11,4.9,0.66
O=C(CN1CCOCCOCCOCC1)Nc1ccccc1,6%,0.0,1,nt,nt,nt,nt,nt,0.65
CO[C@H]1CN(C)C(=O)c2cc(NC(=O)C3CCOCC3)ccc2OC[C@@H](C)N(Cc2nccs2)C[C@@H]1C,nt,nt,nt,-1.0,i,0,8,-1.6,nt
O=C(NCc1ccco1)C1CCN(C(=O)c2cc3sccc3n2Cc2ccc(F)cc2)CC1,2%&-7%,0.5,-4,11,i,-29*,-23*,-0.2*,0.66
CCN(Cc1ccccc1)C(=O)C1CCN(C(=O)Nc2ccccc2)CC1,nt,2.2,-7,-1.1,i,12,13,0.0,0.67

# Next section:
SMILES,Vif A3G,HNF4A DNA FP,ALR inh,AF4-AF9 inh,FGF22 binding,Ecoli rRNA inh,Ecoli rRNA inh OD600,Ecoli rRNA inh RFP,E coli growth
Cc1ccc(-c2cc(C(=O)Nc3sc4c(c3C(=O)NCc3ccco3)CCC4)[nH]n2)c(O)c1,nt,7.2,5,-0.8,i,-1,3,-2.2,0.75
COc1ccc(NC(=O)CSc2nnc(-c3cccnc3)s2)cc1,1%,4.4,0,-4.8,i,6,0,1.1,nt
O=C(Nc1ccc(Cc2nc3ccccc3s2)cc1)c1ccncc1,nt,2.4,-6,-4.3,i,-8,9,7.4,0.69
O=C(COC(=O)CCCSc1nc2ccccc2[nH]1)Nc1cccc(F)c1,-3%,1.0,-16,0.1,i,0,-2,-3.5,0.68

# Part of the list above, set out differently:
Structure | Vif A3G | HNF4A DNA FP | ALR inh | AF4-AF9 inh | FGF22 binding | Ecoli rRNA inh | Ecoli rRNA inh OD600 | Ecoli rRNA inh RFP | E coli growth
Cc1ccc(S(=O)(=O)N(C)C[C@@H]2OCCCC[C@H](C)Oc3ccc(NS(C)(=O)=O)cc3C(=O)N([C@@H](C)CO)C[C@H]2C)cc1 | nt | nt | nt | 1.4 | i | 0 | -8 | -1.0 | nt
O=C(NCCN1CCC(n2c(=O)[nH]c3ccccc32)CC1)c1ccccc1 | nt | -2.1 | nt | -2.1 | i | 16 | 1 | 1.0 | nt
CN1c2ccc(C#Cc3cccnc3)cc2[C@H]2[C@H](CCN2C(=O)c2cccnc2)[C@H]1CO | nt | nt | nt | 3.5 | i | -2 | 9 | -1.4 | nt
